High-throughput results from PubChem BioAssay.
SARS PLpro yeast: blocks SARS-CoV papain-like protease in a yeast assay. S. cerevisiae expressing SARS-CoV PLpro, growth rescue; control for the full effect not named in the record. Potency, µM (top dose mostly 32.9 µM), without a hit: at the top dose activity, positive = growth rescue. 330,000 tested, 0.19% active. AID 485353; active means well fitted rising curve with a large enough effect; inconclusive means small, poorly fitted or top-dose-only effect; inactive means no such curve, though single readings can be large or run the other way; further: 0% is about no effect; nearly all actives have a fitted effect of over 55% in size; growth read by luminescence after 48 h
2A StopGo: lowers the luciferase signal of an FMDV 2A StopGo reporter; human cells with a luciferase reporter of 2A StopGo recoding; control for the full effect not named in the record; Potency, µM (titrated, usually from 57.9 µM), for the others: at the highest dose signal change, negative = less light; 410,000 tested, 1.2% active; active = well fitted falling curve with a large enough effect; inconclusive = small, poorly fitted or top-dose-only effect; inactive = no such curve, though single readings can be large or run the other way; tested in HEK293T cells; further: on the % scale 0 is the no-effect control and ±100 the full control effect; nearly all actives have a fitted effect of over 45% in size; luciferase light after 4 h
NS1 function inh: blocks influenza NS1 protein function | S. cerevisiae slowed by influenza A NS1, growth recovery by OD600 | 270,000 tested, 0.4% active | Potency, µM (doses to about 46.1 µM), for the others: top-dose activity, positive = more growth; active means well fitted rising curve with a large enough effect; inconclusive means small, poorly fitted or top-dose-only effect; inactive means no such curve, though single readings can be large or run the other way; further: nearly all actives have a fitted effect of over 50% in size
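OD600 was taken as the measure of yeast growth restored by compound in an NS1-expressing S. cerevisiae strain. Cells had been washed out of glucose medium and diluted 1:100 into galactose -URA medium, pH 6.0.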
Cruzain Triton: inhibitors of Trypanosoma cruzi cruzain with detergent | purified cruzain, Z-FR-AMC fluorescence, 0.01% Triton | 200,000 tested, 0.43% active | Potency, µM, for the others: max response, negative = inhibition, most hits filed as inhibitors;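 further: plate controls were neutral wells for no effect and buffer without enzyme for full effect; nearly all actives have a fitted effect of over 40% in size; top concentration of the series not given in the record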
Target sequence (P25779 123-467 limits assumed): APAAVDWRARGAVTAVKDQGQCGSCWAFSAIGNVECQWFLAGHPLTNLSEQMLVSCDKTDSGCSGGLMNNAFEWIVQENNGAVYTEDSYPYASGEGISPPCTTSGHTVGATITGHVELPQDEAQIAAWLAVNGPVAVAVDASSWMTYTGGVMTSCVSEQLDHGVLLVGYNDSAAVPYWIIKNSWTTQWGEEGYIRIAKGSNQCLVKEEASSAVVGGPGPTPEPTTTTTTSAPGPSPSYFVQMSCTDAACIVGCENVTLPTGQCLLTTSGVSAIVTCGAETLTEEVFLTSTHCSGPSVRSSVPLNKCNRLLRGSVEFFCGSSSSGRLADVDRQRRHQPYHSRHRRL
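Read-out: AMC fluorescence (360 nm excitation, 450 nm emission), four reads over 2 min, first-to-third difference used. Conditions: cruzain 1.5 nM, Z-FR-AMC 2 uM, pH 5.5 acetate, 5 mM DTT, 0.01% Triton X-100.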
MARV entry inh: blocks Marburg virus binding to or entry into cells | Marburg virus pseudotyped entry inhibition, cell reporter; control for the full effect not named in the record; about a third of the inactives were read at about 46 µM | Potency, µM (titrated, usually from 37.8 µM), for inactives: top-dose activity change, negative = inhibition, hits mostly inhibitors | 300,000 tested, 1.8% active | AID 540276; active = well fitted inhibition curve with a large enough effect; inconclusive = small, poorly fitted or top-dose-only effect, or effect the other way; inactive = flat fitted curve, though single readings scatter; tested in HEK293 cells; about a fifth of its hits are not listed in these tables; further: on the % scale 0 is the no-effect control and ±100 the full control effect; luciferase read-out
RE007 growth inh: less growth of the S. pombe RE007 Vpr strain; S. pombe RE007 Vpr strain, BacTiter-Glo ATP luminescence, 24 h; control for the full effect not named in the record; Potency, µM (doses to about 92.2 µM), without a hit: top-dose activity change, negative = less growth; 360,000 tested, 0.21% active; active = well fitted falling curve with a large enough effect; inconclusive = small, poorly fitted or top-dose-only effect; inactive = no such curve, though single readings can be large or run the other way;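 further: on the % scale 0 is the no-effect control and ±100 the full control effect; nearly all actives have a fitted effect of over 50% in size; the assay follows cell death caused by Vpr and the record does not say whether a fall means rescue or toxicity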
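Fission yeast strain RE007, carrying one chromosomally integrated HIV-1 vpr copy, was seeded at OD 0.01 in PMG+AL medium with 23 nL pinned compound. After 24 h at 30 °C and 99% humidity, viability was read by BacTiter-Glo luminescence.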
LASV entry inh: inhibitors of Lassa virus binding or cell entry; 300,000 tested, 1.2% active; Lassa virus pseudotype entry inhibition, cell reporter; control for the full effect not named in the record; Potency, µM (top dose mostly 37.9 µM), inactives show at the top dose activity change, negative = inhibition, hits mostly inhibitors; AID 540256; active means well fitted inhibition curve with a large enough effect; inconclusive means small, poorly fitted or top-dose-only effect, or effect the other way; inactive means flat fitted curve, though single readings scatter; tested in HEK293 cells; further: on the % scale 0 is the no-effect control and ±100 the full control effect; nearly all actives have a fitted effect of over 50% in size; luciferase read-out
Cruzain noTriton: blocks cruzain activity in detergent-free assay; P25779; purified cruzain, Z-FR-AMC fluorescence, no detergent; Potency, µM, without a hit: max response, negative = inhibition, hits mostly inhibitors; 200,000 tested, 2.3% active; AID 1476;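 further: plate controls were enzyme without inhibitor for no effect and buffer without enzyme for full effect; nearly all actives have a fitted effect of over 40% in size; top concentration of the series not given in the record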
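Detergent-free condition (0.00005% Triton X-100) in acetate buffer pH 5.5 with DTT. 1.5 nM enzyme and compound were pre-mixed 15 min, then 2 uM Z-FR-AMC substrate added; reaction progress from fluorescence change between first and third reads (60 s).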
* = called active by the depositor; ? = inconclusive; nt = no result given; & = joins results of further samples; [ ] = another dose, or the depositor's remark. Unless noted, the call rests on the fitted dose curve; in most records, active means well fitted curve in the direction sought with a large enough effect; inconclusive means small, poorly fitted or top-dose-only effect, or another doubt; inactive means no such curve, though single readings can be large; an effect the other way counts as inactive or inconclusive. Potency means the concentration at half of the fitted maximal effect.

SMILES	SARS PLpro yeast	2A StopGo	NS1 function inh	Cruzain Triton	MARV entry inh	RE007 growth inh	LASV entry inh	Cruzain noTriton
CCOc1ccc(C(C)NC(=O)CCC(=O)O)cc1 (stereo not given)	4%	-19%	-4%	2.4%	0%	14%	12%	13%
Cc1nn(Cc2cccc3ccccc23)c(C)c1NC(=O)c1cccnc1	-1%	-20%	1%	nt	2%	5%	-11%	nt
Cn1c(Cc2cccs2)nnc1SCC(=O)N1CCc2ccccc21	0%	3%	-1%	1.1%	-2%	-11%	?	-5%
CC(C)CCOc1ccc(C(=O)NCC(c2cccs2)N2CCOCC2)cc1 (stereo not given)	-9%	-25%	nt	nt	?	17%	?	nt
COc1ccccc1OCCn1c(COc2cc(C)ccc2C)nc2ccccc21	nt	7%	nt	-6.8%	-1%[46.1 µM]	nt	-19%[46.1 µM]	-1%
O=[N+]([O-])c1ccc(Cl)c(/C=N/N2CCN(Cc3ccc(Cl)cc3)CC2)c1	1%	0%	-3%	-7.3%	-27%	-2%[3.69 µM]	-9%	-3%
Cc1cc(NS(=O)(=O)c2ccc(C3CCCCC3)cc2)no1	-14%	nt	-151%	-7.7%	6%	-14%	13%	?
O=C(C[n+]1ccsc1)c1ccccc1	21%	3%	17%	-2.0%	-33%	9%	-3%	-8%
CC(C(=O)NCCS(=O)(=O)c1ccc(Cl)cc1)S(=O)(=O)c1ccc(Cl)cc1 (stereo not given)	-7%	-8%	nt	nt	3%[14.2 µM]	31%	-28%	nt
Cc1ccccc1NC(=O)C1CCCN(S(=O)(=O)c2ccc3c(c2)C(C)(C)C(=O)N3C)C1 (stereo not given)	3%	-27%	-7%	nt	nt	-14%	nt	nt
CCCCn1c(N)c(N(Cc2ccccc2OC)C(=O)c2ccc([N+](=O)[O-])s2)c(=O)[nH]c1=O	?	4%	nt	nt	5%[46.1 µM]	-26%	23%	nt
CCC1CCc2sc(C(=O)N3CCN(c4ccccn4)CC3)cc2C1 (stereo not given)	nt	-10%	nt	nt	18%	-28%	-9%	nt
COC(=O)c1cc2c(C)cc3ccc(C)cn3c-2c1C(=O)OC	3%	0%	10%	-3.8%	1%	-1%	-13%	?
C#CCN1C(=O)S/C(=C/C=C/c2ccc(N(C)C)cc2)C1=O	15%	-5%	19%	-5.3%	-14%	-19%	?	-28%
O=C(Nc1cccc(Cl)c1)c1cncn1-c1ccc(F)cc1	-9%	10%	-5%	nt	-15%	1%	23%	nt
O=C(c1cccc(S(=O)(=O)N2CCOCC2)c1)N1CCOCC1	1%	7%	-4%	1.8%	14%	9%	-17%	-4%
CC(C)(C)c1ccc(-c2nnc(SCCC#N)n2C2CCCC2)cc1	-13%	?	-44%	-10%	?	14%	?	-5%
Cc1ccc(S(=O)(=O)N/N=C\c2ccc(C)o2)cc1	-6%	nt	23%	-1.0%	12%	-4%	2%	-9%
COc1ccccc1NC(=O)Cn1nnc(-c2ccccc2NC(=O)c2cnccn2)n1	0%	-18%	nt	nt	2%[46.1 µM]	-4%	9%	nt
O=C(O)c1nccnc1C(=O)Nc1ccc(Oc2c(Cl)cccc2Cl)nc1	-1%	2%	4%	nt	3%	4%	-3%	nt
CCC(=O)N1CCc2cc(Br)cc(S(=O)(=O)N3CCCC(C(=O)Nc4ccc(C(C)C)cc4)C3)c21 (stereo not given)	nt	-17%	nt	-3.7%	-12%[46.1 µM]	nt	-5%[46.1 µM]	13%
CC(C)Cn1cnc2c1c(=O)n(CC(O)c1ccccc1)c(=O)n2CC(C)C (stereo not given)	4%	-9%	5%	7.2%	-7%	3%	?	?
O=C(O)c1cc(S(=O)(=O)Nc2cccc(Oc3ccccc3)c2)ccc1Br	0%	-17%	?	nt	14%	7%	-14%	nt
CCc1ccc(CN2CCCC(C(=O)c3sccc3C)C2)o1 (stereo not given)	1%	-18%	-2%	nt	nt	-27%	nt	nt
O=c1c2ccccc2nc(COc2ccccc2)n1/N=C/c1ccc(O)cc1O	?	-15%	-36%	nt	nt	10%	nt	nt
SMILES	SARS PLpro yeast	2A StopGo	NS1 function inh	Cruzain Triton	MARV entry inh	RE007 growth inh	LASV entry inh	Cruzain noTriton
COc1ccc(/C=N/NC(=S)Nc2cc(C(F)(F)F)ccc2Cl)cc1	-1%	1%	3%	nt	?	-4%	?	nt
CC(C)(C)NCc1ccc(OCc2cccs2)cc1	-2%	1%	nt	nt	?	-3%	-8%[46.1 µM]	nt
Cc1cc(C)n(CCN(C)c2nc3nonc3nc2N2CCCCC2)n1	1%	9%	4%	nt	12%	-10%	?	nt
COc1cccc(C(=O)NCCSc2ccc(C)cc2)c1	-7%	-9%	-32%	-4.5%	?	-7%	4%	-5%
Cc1cc(C)n(CC(=O)N2CCCC(N3CCN(c4ccc(F)cc4)CC3)C2)n1 (stereo not given)	2%	-15%	7%	nt	0%	-5%	-11%	nt
O=C(CSCc1cc(=O)n2nc(C3CC3)sc2n1)Nc1ccc(F)cc1	-6%	-3%	-1%	nt	nt	8%	nt	nt
CSC1=C(C#N)C(c2ccc3c(c2)OCO3)C2=C(CCCC2=O)N1 (stereo not given)	4%	0%	-3%	-6.3%	1%	-3%	-13%	-15%
CCCN1C(=O)C(NS(=O)(=O)c2ccc(N)cc2)(C(F)(F)F)C(C(=O)OC)=C1C (stereo not given)	-1%	-4%	1%	2.2%	?	-8%	-10%	2%
COc1cccc(/C(O)=C/c2nc3ccc(C(=O)NCCc4cccc(C)c4)cc3[nH]c2=O)c1	7%	?	21%	-2.6%	?	-2%	2%	20µM*
Cc1cccc(OCCn2c(=O)oc3ccc(C)cc32)c1	-2%	30%	-8%	nt	-13%[46.1 µM]	-15%	-9%[46.1 µM]	nt
Cc1c(C(=O)N2CCOCC2)c(S(=O)(=O)Nc2ccccc2F)c(C)n1C	7%	35%[activator]	7%	nt	6%[46.1 µM]	-2%	6%[46.1 µM]	nt
Cc1ccc(S(=O)(=O)NCc2ccccc2)cc1C(=O)NC1CCCCC1	0%	11%	-3%	nt	-25%	-8%	?	nt
COC(=O)c1ccccc1-c1ccc(/C=N/Nc2nc(N3CCCC3)nc(N3CCCC3)n2)o1	-2%	22µM*	-8%	nt	?	0%	?	nt
O=C(O)c1ccccc1C(=O)Nc1ccc(Nc2ccc([N+](=O)[O-])cc2[N+](=O)[O-])cc1	1%	1%	5%	nt	nt	-12%	nt	nt
CC(=O)Nc1ccc(NC(=O)C(C)OC(=O)c2cccc(S(=O)(=O)N3CCCCC3)c2)cc1 (stereo not given)	?	3%	21%	nt	2%	-7%	1%	nt
O=C(Nc1cc2c(cc1Br)OCCO2)c1cccnc1	3%	13%	?	nt	nt	-4%	nt	nt
CN1CCc2c(sc(/N=C/c3ccco3)c2C(N)=O)C1	1%	2%	-7%	-4.3%	14%	-13%	0%	-21%
CCOCCCNC(=O)c1cn(CC)c2ccc(S(=O)(=O)N3CCC(C)CC3)cc2c1=O	-4%	-13%	6%	nt	nt	-7%	nt	nt
Cc1sc(NC(=O)CSc2nc(N)cc(N)n2)c(C#N)c1C	0%	-14%	0%	nt	nt	-2%	nt	nt
O=C1NC(c2cccc(Cl)c2)Nc2ccccc21 (stereo not given)	0%	1%	5%	nt	?	6%	-17%	nt
O=C(c1cccs1)c1sccc1Cc1ccccc1	nt	18%	nt	nt	17%[46.1 µM]	-3%	?	nt
Cc1cc(C)cc(N(C)S(=O)(=O)c2nnc(NC(=O)COc3ccc(C)c(C)c3)s2)c1	nt	-16%	nt	-2.6%	nt	nt	?	-2%
CCOc1ccc(NC(=O)N(Cc2c[nH]c3ccccc23)C2CCCCCC2)cc1	nt	45%[activator]	nt	-16%	?	nt	-5%[46.1 µM]	8%
O=C1CCc2cc(Br)ccc2O1	nt	-6%	nt	nt	?	-13%	0%	nt
Cc1nnc2ccc(N3CCCC3)nn12	-9%	0%	6%	1.0%	8%[46.1 µM]	-10%	-22%	-10%
SMILES	SARS PLpro yeast	2A StopGo	NS1 function inh	Cruzain Triton	MARV entry inh	RE007 growth inh	LASV entry inh	Cruzain noTriton
O=C(C[n+]1ccc(Cc2ccccc2)cc1)Nc1ccccc1	6%	16%	nt	nt	0%[46.1 µM]	3%	-9%	nt
COc1ccccc1CNS(=O)(=O)N(C)C	1%	-4%	5%	nt	6%[46.1 µM]	-6%	4%	nt
Cc1oc(C(C)(C)C)cc1C(=O)Nc1cccc(/C=C\C(=O)O)c1	0%	36%[activator]	-5%	-8.6%	?	17%	6%	-7%
O=C(O)c1ccc(-n2cc(-c3cc4ccccc4oc3=O)[nH]c2=S)cc1	0%	15%	-2%	nt	-3%[46.1 µM]	-13%	nt	nt
CCOC(=O)/C(C(N)=NC)=C(\O)c1ccccc1	-6%	-11%	-58%	0.3%	-29%	-1%	-1%	-2%
CC(C)(C)n1cnc2cc(NCc3ccccc3O)ccc21	0%	29%	-6%	nt	?	-12%	17%	nt
COc1cccc2cc(C(C)N(CCCN3CCOCC3)C(=S)Nc3ccc(C)c(C)c3)oc12 (stereo not given)	1%	-13%	nt	nt	?	-3%	-19%[46.1 µM]	nt
CCCn1nc(-c2ccccc2)c2nc3ccccc3nc21	-3%	1%	-2%	-4.5%	13%	-16%	-13%	-5%
COc1ccc(OC)c(-c2cc(C(=O)Nc3c(C)nn(Cc4ccccc4)c3C)no2)c1	1%	?	11%	-2.8%	?	18%	?	?
C/C(CC(=O)N1CCN(C=O)CC1)=N\NC(=O)c1ccc(Br)cc1	-3%	-11%	2%	nt	5%[46.1 µM]	-15%	?	nt
O=C(COC(=O)c1cccc([N+](=O)[O-])c1)NCc1ccc2c(c1)OCO2	?	14%	4%	-2.3%	0%	3%	26%	-4%
COc1ccc(OC)c(C2=NOC(C(=O)Nc3cc(C)nn3-c3ccccc3)C2)c1 (stereo not given)	18%	-13%	-15%	0.2%	0%&0%	4%	-2%	6%
O=C(NCC1CCCCC1)c1cc([N+](=O)[O-])ccc1Cl	14%	-15%	-4%	nt	9%[46.1 µM]	4%	8%[46.1 µM]	nt
Nc1ccc(Sc2cc(Cl)nc(N)n2)cc1	6%	nt	11%	6.2%	1%	nt	nt	13µM*

Hits appear at their usual frequency; about 4.8% have a hit in one of these screens.
